NPYLR7 ag: mosquito NPYLR7 agonism | HEK293T NPYLR7/Galpha15, GCaMP6s calcium fluorescence | activation, % at 10 µM | 0.15% of 270,000 active; in the data active means activation above about 40%;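 further: 0% = vehicle and 100% = reference agonist at the receptor; some compounds past the cut are filed as inactive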
NPYLR7 ag max-min: second read-out of NPYLR7 ag, no call of its own (marks repeat the call); activation, %; measured here: Max-Min RFU normalised activation; some inactives read as strong as hits;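 span of the calcium signal over five minutes; 0% = vehicle and 100% = native peptide agonist; compound fluorescence can raise it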
* = called active by the depositor; & = joins results of further samples. A portion of the library, so the mix of outcomes need not match the whole.

(1) COc1ccc(-c2nc3cc(C)ccn3c2NC2CCCCC2)cc1OC
(2) O=C(CCn1cnc2ccccc2c1=O)NC1CCCN(CC2CCCCC2)C1 (stereo not drawn)
(3) Cc1[nH]nc(CCC(=O)N2CCc3c(nc[nH]c3=O)C2)c1C
(4) Cn1c(-c2nccn2CCCc2ccncc2)nc2ccccc21
(5) Cc1cc(NC(=O)c2ccc(CN(C)C(=O)C(C)C)cc2)n[nH]1
(6) COc1cc(/C=C/CN2CCCC(C(=O)Nc3ccc(-c4ccco4)cc3)C2)ccc1O (stereo not drawn)
(7) CCCc1c(C(=O)N2CCN(c3nccc(-c4ccc5c(c4)OCO5)n3)CC2)cnn1-c1ccc(Cl)cc1
(8) COc1ccc(C2c3cccn3CCN2C(=O)NCc2ccccc2)cc1 (stereo not drawn)
assay / entry,1,2,3,4,5,6,7,8
NPYLR7 ag,-1.2&2.9,10.3,9.8,6.3,2.0,2.4,12.5,-0.2
NPYLR7 ag max-min,4.6&6.9,10.8,6.5,5.3,9.6,1.5,10.1,-2.2

Single records (already shown):
`COc1ccc(-c2nc3cc(C)ccn3c2NC2CCCCC2)cc1OC` as listed: NPYLR7 ag = -1.2&2.9; NPYLR7 ag max-min = 4.6&6.9
`Cc1[nH]nc(CCC(=O)N2CCc3c(nc[nH]c3=O)C2)c1C` as listed: NPYLR7 ag = 9.8; NPYLR7 ag max-min = 6.5

Further structures follow:
(9) CCCc1cc(=O)[nH]c(N=C(N)Nc2cccc(C)c2)n1
(10) Cc1nc(C2(NC(=O)CCNC(=O)OCC(F)(F)F)CCCC2)no1
(11) CN1CC2(CCCN(C(=O)CCn3nnc4ccccc43)C2)OC1=O (stereo not drawn)
(12) CC1CCc2nc(NC(=O)c3ccc([N+](=O)[O-])s3)sc2C1 (stereo not drawn)
(13) CCCn1c(O)c(N=NC(=O)c2ccc3ccccc3n2)c2ccccc21
(14) Cc1nc(C)c(Cc2cccc(C(F)(F)F)c2)c(N2CCN(C(=O)c3cccc(Cl)c3)CC2)n1
(15) COCCN(Cc1cc(Cl)ccc1OS(=O)(=O)c1ccc(F)cc1)C(=O)c1cccc(F)c1
(16) O=C(CNC(=O)Cc1ccc(Cl)cc1)N=Nc1c(O)n(CCc2ccccc2)c2ccccc12
assay / entry,9,10,11,12,13,14,15,16
NPYLR7 ag,0.9,6.5,3.0,0.1,-1.3,2.6,-0.5,-0.5
NPYLR7 ag max-min,1.1,7.7,1.5,20.6,-4.9,8.9,4.0,-3.4

(17) COc1cc(OC)cc(-c2nnc(SCc3ccccc3Cl)n2-c2ccc(C)cc2)c1
(18) C=CCCC(O)(CCC=C)c1ccc(CN(CCOC)Cc2ccccc2OC)o1
(19) Cc1ncc(CN2CCc3cccc(C)c32)s1
(20) CN(C)c1cccc(-c2cc(C3(CNCCc4ccccc4)CC3)ccn2)c1
(21) Cc1c(C(=O)N(C)Cc2ccc(F)cc2)sc(=O)n1Cc1ccc(C(C)C)cc1
(22) CCCCCOc1cc(C)ccc1S(=O)(=O)N1CCN(c2ccccc2)CC1
(23) COc1ccc(-n2c(-c3ccccc3)cc(C(=O)N(CCN(C)C)Cc3ccccc3)c2C)c(OC)c1
(24) O=C1CC(c2ccc(S(=O)(=O)N3CCCC3)cc2)CN1 (stereo not drawn)
assay / entry,17,18,19,20,21,22,23,24
NPYLR7 ag,12.6,-11.2,2.1,-9.5,15.0,-3.8,-6.7,-1.2
NPYLR7 ag max-min,11.6,-4.5,-3.0,-7.1,3.6,-7.5,-0.1,-4.6

(25) CCOC(=O)c1c(NC(=O)C2CC2)sc(C(=O)Nc2cccc(OC)c2)c1C
(26) O=c1[nH]nc(CCn2cccn2)n1-c1ccccc1-c1ccccc1
(27) C=CCn1c(C)c(C)n2c3c(=O)[nH]c(=O)n(C)c3nc12
(28) Cc1ccc(-n2c(=O)[nH]c3c(C(=O)NC4CCCCCC4)cn(C)c3c2=O)cc1
(29) Cc1ccc(Cl)cc1N1CCN(C(=O)Nc2nncs2)CC1
(30) CC(C)NC(=O)C1(C)Cc2c(-c3ccc(C(N)=O)cc3)ccnc2O1 (stereo not drawn)
(31) CN1CC(NC(=O)c2cc(C3CC3)[nH]n2)c2sccc2S1(=O)=O (stereo not drawn)
(32) CCCCCn1c(=O)c2c(nc3n2CCCN3c2ccc(Br)cc2)n(C)c1=O
assay / entry,25,26,27,28,29,30,31,32
NPYLR7 ag,11.9,10.3,10.4,1.5,-1.2,-15.7,27.6,5.3
NPYLR7 ag max-min,16.7,1.4,3.3,2.3,-2.2,-15.5,17.5,0.9

Among those listed so far, 4 contain fluorine.
(10) Cc1nc(C2(NC(=O)CCNC(=O)OCC(F)(F)F)CCCC2)no1
(14) Cc1nc(C)c(Cc2cccc(C(F)(F)F)c2)c(N2CCN(C(=O)c3cccc(Cl)c3)CC2)n1
(15) COCCN(Cc1cc(Cl)ccc1OS(=O)(=O)c1ccc(F)cc1)C(=O)c1cccc(F)c1
(21) Cc1c(C(=O)N(C)Cc2ccc(F)cc2)sc(=O)n1Cc1ccc(C(C)C)cc1
assay / entry,10,14,15,21
NPYLR7 ag,6.5,2.6,-0.5,15.0
NPYLR7 ag max-min,7.7,8.9,4.0,3.6

Next section.
(33) CC(NC(=O)N1CCCC(O)C1)C(C)(C)CN(C)C (stereo not drawn)
(34) CCNc1ncc(C(=O)N(C)Cc2cc3cc(F)ccc3[nH]2)cn1
(35) Cc1ccc(N=Cc2nc(-c3ccccc3)oc2O)cc1
(36) O=c1oc2ccc(Br)cc2cc1-c1nnc(Nc2cccc3ccccc23)s1
(37) COc1ccc(C2c3cccn3CCCN2Cc2ccccc2[N+](=O)[O-])cc1 (stereo not drawn)
(38) O=C(Nc1noc2ncccc12)c1ccccc1F
(39) Cn1cc(NC(=O)CN2CCCC(Nc3ccc(F)c(F)c3)C2)cn1 (stereo not drawn)
(40) CCOC(=O)[C@@H]1CN(C(=O)OCC)[C@H]2c3ccccc3O[C@@H]12
assay / entry,33,34,35,36,37,38,39,40
NPYLR7 ag,2.4,-3.4,-4.2,-3.0,34.8,-5.9,1.8,-0.8
NPYLR7 ag max-min,-2.3,-13.8,-10.6,6.4,42.1,-5.8,-0.2,4.4

(41) CCOC(=O)c1c(-c2ccc(Br)cc2)csc1NC(=O)C(C)(C)C
(42) CC1(Cc2cccc(C#N)c2)C(=O)Nc2ccc(-c3ccc(F)c(Cl)c3)cc21 (stereo not drawn)
(43) Cc1nc2n(n1)C(=O)C(C(c1ccco1)N1CCN(Cc3ccccc3)CC1)S2 (stereo not drawn)
(44) N#Cc1c(NC(=O)CCCl)sc2c1CCCC2
(45) CNc1nc(-c2ccc(Cl)cc2)c(CC(=O)O)s1
(46) CC1CCN(C(=O)CN2CCN(S(=O)(=O)c3ccc(F)cc3)CC2)CC1
(47) CCc1nc2c(OCCOc3ccccc3)cccn2c1N(C)C(=O)c1ccc2c(c1)OCO2
(48) Cc1nc(SCC(=O)NC(C)(C)C)c2c(C)c(C)sc2n1
assay / entry,41,42,43,44,45,46,47,48
NPYLR7 ag,1.0,1.2,3.2,-2.6,9.5,1.1,-15.6,1.5
NPYLR7 ag max-min,-2.4,2.2,-0.8,-6.3,9.5,-2.1,4.5,3.9

(49) COc1cccc(CCC(=O)N2CCCC(c3ccn[nH]3)C2)c1 (stereo not drawn)
(50) O=c1nc(Nc2ccc3c(c2)OCO3)sc2ncccc12
(51) Cc1nc2ccccn2c(=O)c1NC(=O)c1ccc(Cl)cc1
(52) COC1CN(C(=O)OCc2ccccc2)CCC(=O)N(C)c2ccccc21 (stereo not drawn)
(53) COc1ccc2ccccc2c1C=C1C(=O)N(C)C(=O)N(C)C1=O
(54) COc1cccc(CN(Cc2ccc(F)cc2)CC(O)COc2ccc(Cl)cc2)c1OC (stereo not drawn)
(55) Cc1cc(Oc2cccc(Cl)c2)nc(SCc2cccc(C(F)(F)F)c2)n1
(56) CC(NC(=O)C1=COCCO1)c1ccc(Cl)c(Cl)c1 (stereo not drawn)
assay / entry,49,50,51,52,53,54,55,56
NPYLR7 ag,0.5,-2.2,2.5,5.4,-2.8,23.9,27.8,8.3
NPYLR7 ag max-min,0.0,-3.3,-0.9,20.3,-1.8,36.6,23.6,7.2

(57) O=S1(=O)CCC(N2CCCCC2)C1 (stereo not drawn)
(58) O=C1NCCNC12CCN(S(=O)(=O)c1ccccc1C(F)(F)F)CC2
(59) Cc1nc2ccccn2c(=O)c1NC(=O)c1cccc([N+](=O)[O-])c1C
(60) COc1ccc(CC(=O)NCC(c2cccc3ccccc23)N(C)C)cc1 (stereo not drawn)
(61) N#Cc1ccc(NC(=O)CN2CCSC2=O)cc1
(62) O=C(NC1CC(=O)N(CCc2ccccc2)C1)c1[nH]cnc1-c1ccccc1 (stereo not drawn)
(63) CCOc1cc(C=Nn2c(C)csc2=NC(C)C)ccc1O
(64) CCn1cc(/C=C(\C#N)C(=O)Nc2cccc(C(F)(F)F)c2)c(C)n1
assay / entry,57,58,59,60,61,62,63,64
NPYLR7 ag,-0.4&1.9,14.2,4.6,-0.9,3.5,7.0,-2.2,3.7
NPYLR7 ag max-min,-0.6&0.0,13.9,2.2,-2.4,1.1,6.0,-2.1,8.2

(65) CNC(=O)c1nnc2n1CCN(C(=O)c1ccc(OC)cc1)C2
(66) CCCCCc1ccc(C(=O)N(CC(=O)N2CCc3sccc3C2c2ccccc2)C(C)(C)C)cc1 (stereo not drawn)
(67) CCCCCCCn1c(CN2CCN(CC)CC2)nc2c1c(=O)n(C)c(=O)n2C
(68) CCCCn1nnnc1NCc1cccnc1
(69) CCOC(=O)c1c(CSc2nc(C)cc(C)n2)nc2c3ccccc3ccn12
(70) CCc1ccc(C(=O)Nc2c(-c3ccc(C(F)(F)F)cc3)nc3ccccn23)cc1
(71) Cc1cnc(C(=O)N2CCCC3(CC2)CNC(=O)O3)cn1 (stereo not drawn)
(72) CC(Sc1nnnn1CCc1cccs1)C(=O)N1CCNC1=O (stereo not drawn)
assay / entry,65,66,67,68,69,70,71,72
NPYLR7 ag,-0.3,-1.5,6.0,14.0,2.3,-5.9,5.3,2.2
NPYLR7 ag max-min,-3.4,10.6,11.4,4.8,0.9,-2.8,2.5,0.8

(73) CC(=O)N(C)c1nc(CSc2nnc(C(F)(F)F)n2C)cs1
(74) COCCNC(=O)c1ccc(CSc2nnc(-c3cccnc3)n2-c2ccccc2F)cc1
(75) O=C(c1ccc(Cl)cc1)N1CCN(C(C(=O)N2CCOCC2)C2CCCC2)CC1 (stereo not drawn)
(76) Cc1cc(C)c(CN2CCCC(Cn3ccnc3C)C2)c(-n2cccn2)c1 (stereo not drawn)
(77) Cc1cc(N)nc(SCC(=O)Nc2ccc(C(C)(C)C)cc2)n1
(78) O=C1NC2(CCCCC2)C(=O)N1CN1CCN(Cc2cc(=O)n3ccsc3n2)CC1
(79) CC(C)C(=O)Nc1cc(N2CC(C(=O)O)CC2=O)ccc1F (stereo not drawn)
(80) O=C(c1ccc(Cl)c(F)c1)N1CCN(Cc2cccc(-c3noc(-c4cccnc4)n3)c2)CC1
assay / entry,73,74,75,76,77,78,79,80
NPYLR7 ag,-1.6,20.4,0.4,-6.6,-1.8,13.3,4.0,2.8
NPYLR7 ag max-min,-3.1,21.6,1.5,-14.4,-3.9,18.8,2.2,-1.4

(81) COc1ccc(NC(=O)N2CCSC2c2cc(OC)ccc2OC)c(OC)c1 (stereo not drawn)
(82) C#CCn1c(=NC(=O)c2cc(C)no2)sc2cc(OC)c(OC)cc21
(83) Fc1ccc2c(c1F)n1c3c(c(-c4ccco4)cn23)CCCC1
(84) Cc1ccccc1NC(=O)N1CCN(C(c2ccc(F)cc2)c2ccc(F)cc2)CC1
(85) COc1cn(CC(=O)Nc2ccc(C)cc2)c(CSc2nccc(C)n2)cc1=O
(86) CCOc1ccccc1-c1nc(C(N)=O)c2[nH]c(=O)n(-c3cccc(OC)c3)c2n1
(87) O=C(NCc1ccc2c(c1)OCO2)c1ccccc1C1CCNC1 (stereo not drawn)
(88) COc1cccc(CO[C@]2(C(=O)NC(C)C)CC(OCc3ccc(C#N)cc3)[C@H](O)[C@H](O)C2)c1 (stereo partly drawn)
assay / entry,81,82,83,84,85,86,87,88
NPYLR7 ag,13.6,7.1,-6.0,5.2,-2.0,11.4,22.0,17.0
NPYLR7 ag max-min,12.5,9.7,-9.0,12.0,-3.6,2.6,5.3,15.7

Screen by screen, quoted from above.
Entries 84–87 in NPYLR7 ag read 5.2, -2.0, 11.4, 22.0
Entries 84–87 in NPYLR7 ag max-min read 12.0, -3.6, 2.6, 5.3

The list continues.
(89) COc1ccc(-c2nc(CN3CCN(c4nc5ccccc5s4)CC3)c(C)o2)c(OC)c1
(90) COc1ccc(Cn2ccnc2CN(CCN(C)C)C(=O)CC(C)C)cc1
(91) CC(=O)OCC(=O)[C@@]1(O)CCC2C3CCC4=CC(=O)C=C[C@]4(C)[C@@]3(Cl)[C@@H](Cl)C[C@@]21C (stereo partly drawn)
(92) COc1nccnc1-c1ccc(C(C)N2CCCCC2)cc1 (stereo not drawn)
assay / entry,89,90,91,92
NPYLR7 ag,-7.5,17.6,-2.5,11.7
NPYLR7 ag max-min,-11.5,12.2,-8.8,6.1
